Assay outcomes: PubChem BioAssay, several laboratories
RGS16-Gao HTS: RGS16-Galphao interaction regulator (human); bead-based flow cytometry RGS16-Galphao binding, fluorescence; actives lie on both sides; binding response (% of control), % at 10 µM; 220,000 tested, 0.38% active;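 active = below 25% or above 175%, edge rows of some plates excepted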;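 note: Galphao activated by GDP with aluminum fluoride before binding; 100% = wells without compound and 0% = beads without RGS; some results beyond the cut were filed as inactive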
Target sequence (O15492 whole entry, looked up): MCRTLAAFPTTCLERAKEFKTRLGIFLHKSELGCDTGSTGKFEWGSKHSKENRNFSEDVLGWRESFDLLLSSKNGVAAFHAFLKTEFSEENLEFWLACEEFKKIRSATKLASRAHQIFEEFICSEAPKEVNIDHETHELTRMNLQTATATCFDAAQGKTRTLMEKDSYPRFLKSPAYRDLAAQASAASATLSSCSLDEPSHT
Target sequence (P09471 whole entry, looked up): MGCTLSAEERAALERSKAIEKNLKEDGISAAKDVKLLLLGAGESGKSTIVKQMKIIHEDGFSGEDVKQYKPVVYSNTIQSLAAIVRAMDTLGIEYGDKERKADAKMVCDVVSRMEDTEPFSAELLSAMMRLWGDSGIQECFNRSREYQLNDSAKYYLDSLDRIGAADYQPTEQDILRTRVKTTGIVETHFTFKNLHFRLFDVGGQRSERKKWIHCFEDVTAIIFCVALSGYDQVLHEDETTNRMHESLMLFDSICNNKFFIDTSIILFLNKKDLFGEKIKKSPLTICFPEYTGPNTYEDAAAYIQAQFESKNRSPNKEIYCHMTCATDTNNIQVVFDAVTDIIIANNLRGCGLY
PKD1 kinase inh: blocks activity of human protein kinase D1 | PKD1 kinase fluorescence polarization assay | AID 797 | 200,000 tested, 0.056% active | Q15139 | inhibition, %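 (about 10 µM by stock and volumes)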;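 active = inhibition of 50% or more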;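 note: controls were vehicle for no effect and a reference inhibitor for full effect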
Insulin prom inh: TRM-6 insulin promoter activity inhibition; TRM-6 cells (human fetal islet line), insulin promoter-eGFP reporter, imaging; reporter expression induced with tamoxifen; inhibition, % at 2 µM; 130,000 tested, 0.9% active; AID 1273;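 active = inhibition above the mean plus 3 SD, with well images judged a real hit on visual review, cut at about 60% in these data, passing the limit was not always enough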
HSV augment: increases HSV replication in cells; HSV replication augmentation in cells, fold increase; 220,000 tested, 0.005% active; maximum fold increase;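 active = peak rise of 1.5-fold or more in the series; tested in PC3 cells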;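 note: first round at 10 µM; read as green reporter fluorescence; hits show the peak of a series up to 25 µM; 1 = signal of infected wells without compound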
GALR2 agonist: activates the human galanin receptor 2. AID 803. O43603. GALR2-expressing cells, agonist activation read-out. 140,000 tested, 0.48% active. activation, %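 (tested at 5 µM)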;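 active = above mean plus 3 SD of all compounds, about 5% in these data, not always enough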;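 note: 0% = vehicle buffer wells and 100% = reference agonist at full effect; tested in CHO reporter cells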
Target sequence (O43603 whole entry, looked up): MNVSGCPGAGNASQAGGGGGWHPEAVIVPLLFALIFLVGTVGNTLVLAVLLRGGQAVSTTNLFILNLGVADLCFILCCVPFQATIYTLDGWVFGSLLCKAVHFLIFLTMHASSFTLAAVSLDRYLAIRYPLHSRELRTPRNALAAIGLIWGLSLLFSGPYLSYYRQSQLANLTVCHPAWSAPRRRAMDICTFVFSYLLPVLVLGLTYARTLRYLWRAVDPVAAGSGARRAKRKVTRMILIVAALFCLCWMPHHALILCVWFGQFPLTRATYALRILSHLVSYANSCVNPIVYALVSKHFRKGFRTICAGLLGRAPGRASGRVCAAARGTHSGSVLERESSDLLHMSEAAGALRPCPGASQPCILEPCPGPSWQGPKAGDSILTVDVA
Insulin prom inh cell count: second read-out of Insulin prom inh, no call of its own (marks repeat the call); normalized cell count, %; measured here: cell count, toxicity; reference of the scale not given here;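 cells exposed to compound for 48 h; stained nuclei by imaging scaled within each plate; lower means fewer cells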
HSV augment primary fold: further read-out of HSV augment, marked with its call; fold increase; compound at 10 µM; measured here: primary screen fold increase 10 uM; tested in PC3 cells;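 GFP signal in the first replicate; 1 = infected wells without compound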
An asterisk follows results filed as active; i = inactive; · = not tested or not shown.

SMILES | RGS16-Gao HTS | PKD1 kinase inh | Insulin prom inh | Insulin prom inh cell count | HSV augment | HSV augment primary fold | GALR2 agonist
O=C(CCCN1C(=O)c2ccccc2C1=O)NCCC1=CCCCC1 | 107 | -12 | -8 | 160 | i | 0.98 | -0.3
Nc1nc(NC(=O)c2ccccc2)nn1-c1ccccc1 | 103 | 1 | 0 | 121 | i | 0.98 | -1.9
C#CCOCCOCCOCCNc1nc(N2CCN(C(=O)[C@H](CCCCN)n3cc([C@@H](N)CO)nn3)CC2)nc(N2CCN(C(=O)[C@H](Cc3cc4ccccc4[nH]3)n3cc([C@@H](N)CC(C)C)nn3)CC2)n1 | 102 | -4 | · | · | · | · | ·
CCc1nnc(NC(=O)c2c(C)nn(-c3ccccc3)c2Cl)s1 | 98 | 4 | 14 | 89 | i | 0.78 | -0.6
COCC(C)NCc1ccc(OC)c(Br)c1 (centres undefined) | 108 | 3 | -27 | 98 | i | 0.94 | ·
CC(C)C(NC(=O)OCc1ccccc1)C(=O)OCC(=O)NC1CC1 (centres undefined) | 107 | -6 | · | · | i | 1 | ·
O=S(=O)(c1cccc(Cl)c1Cl)N1CCN(C(=S)NCCCN2CCOCC2)CC1 | 101 | 1 | 39 | 101 | i | 1 | ·
CCC(=O)N1CCN(c2ccc(NC(=S)NC(=O)C(C)C)cc2)CC1 | 105 | 8 | · | · | i | 1.1 | ·
O=C1c2ccncc2C(=O)N1CNc1ccc(Cl)cc1 | 103 | -4 | -36 | 68 | i | 0.99 | ·
O=C(c1ccc(F)cc1)N1CCC(N2CCOCC2)CC1 | 96 | -8 | 26 | 97 | i | 0.94 | -1.2
CCCNC(=O)c1cc2ccccc2c(=O)o1 | 99 | -7 | 21 | 87 | i | 1 | -0.4
CC1Cc2ccccc2N1CC(=O)NC(=O)NC(C)(C)C (centres undefined) | 100 | -2 | · | · | i | 1.2 | ·
CNC(=S)Nc1ccc(OC(F)(F)F)cc1 | 102 | -1 | · | · | i | 0.91 | ·
CC(=O)N1CCC2(CC1)C(C#N)=C(N)Oc1n[nH]c(C)c12 | 100 | -1 | 12 | 83 | i | 0.9 | -1.6
O=C1CCc2cc(S(=O)(=O)N3CCC(C(=O)NCCC4=CCCCC4)CC3)ccc2N1 | 106 | -10 | · | · | i | 1 | -2.8
O=C(Cc1ccc([N+](=O)[O-])cc1)Nc1ccc(Cl)cc1 | 110 | -8 | 53 | 135 | i | 0.79 | ·
CN(C(=O)CSc1nnc(-c2n[nH]c3ccccc23)o1)c1ccccc1 | 97 | 0 | · | · | i | 1.1 | 0.1
CC(C)NS(=O)(=O)c1ccc(NC(=S)NC(=O)c2cccc([N+](=O)[O-])c2)cc1 | 109 | -4 | 7 | 135 | i | 0.88 | -0.5
CCCCc1ncc(CN2CCN(Cc3ccc(C)cc3)C(CCO)C2)[nH]1 (centres undefined) | 95 | -3 | · | · | i | 0.97 | ·
CCOc1ncccc1C(=O)OCc1ccc(Cl)cc1 | 62 | 8 | 14 | 119 | i | 0.92 | -0.8
Cc1[nH]c2ccccc2c1SCCNC(=O)c1ccc(Br)o1 | 99 | -19 | 7 | 106 | i | 0.94 | -1.6
COCCN=C1Sc2nc3ccc(C)cc3cc2CN1Cc1ccco1 | 101 | 0 | · | · | i | 0.96 | -2.6
Cc1onc(-c2ccccc2)c1NC(=O)Nc1ccc(OC(F)F)cc1 | 96 | · | · | · | i | 1.1 | ·
CCOC(=O)C1=C(CN2CCOCC2)NC(=O)NC1c1cccc([N+](=O)[O-])c1 (centres undefined) | 100 | 4 | -21 | 132 | i | 0.99 | ·
CC(=O)c1ccc(NC(=S)NCCCn2ccnc2)cc1 | 103 | -1 | · | · | i | 0.99 | ·

Brought forward from above: two entries; new compounds follow.
SMILES | RGS16-Gao HTS | PKD1 kinase inh | Insulin prom inh | Insulin prom inh cell count | HSV augment | HSV augment primary fold | GALR2 agonist
CCOC(=O)C1=C(CN2CCOCC2)NC(=O)NC1c1cccc([N+](=O)[O-])c1 (centres undefined) | 100 | 4 | -21 | 132 | i | 0.99 | ·
CC(=O)c1ccc(NC(=S)NCCCn2ccnc2)cc1 | 103 | -1 | · | · | i | 0.99 | ·
CN(Cc1ccccc1)S(=O)(=O)c1ccc(NC(=O)C2CCCO2)cc1 (centres undefined) | 77 | -8 | -14 | 108 | i | 0.9 | -0.7
S=c1[nH]nc(CCSCc2ccccc2)n1-c1ccccc1 | 99 | 4 | · | · | i | 1 | ·
Cc1cccc(NC(=O)CN2C(=O)C(C)Oc3ccccc32)n1 (centres undefined) | 101 | 1 | -23 | 96 | i | 1.2 | ·
CCC(CC)c1nnc(NC(=O)c2cc(-c3ccccc3)nc3ccccc23)s1 | 106 | -10 | 6 | 69 | i | 0.99 | -1.7
Cc1ccc(C(=O)c2cc([N+](=O)[O-])ccc2N2CCOCC2)cc1C | 101 | 7 | -42 | 8 | i | 0.65 | 1.3
Cc1cc(-c2n[nH]c(=S)n2/N=C/c2ccco2)n[nH]1 | 103 | · | · | · | i | 1.3 | ·
COc1ccc(-n2c(COc3ccc(C)cc3)nnc2SCc2ccc(C#N)cc2)cc1 | 101 | -4 | -35 | 201 | i | 0.92 | -3.3
CCOC(=O)Cc1nnc(NC(=O)CSc2ncc(-c3ccccc3)nn2)s1 | 97 | -8 | 5 | 81 | i | 1.1 | ·
Cc1cc(C)c2nc(N3CCN(C)CC3)c(C#N)cc2c1 | 102 | -9 | · | · | i | 0.81 | -0.5
O=C(Nc1ccccc1C(=O)O)c1cc(S(=O)(=O)N2CCCCC2)cs1 | 103 | -4 | · | · | i | 0.91 | ·
CN(C)c1ccc(-c2nn3c(C4CCCCC4)nnc3s2)cc1 | 101 | -1 | · | · | i | 0.8 | -0.5
Cc1ccc(-c2csc(NC(=O)c3cc([N+](=O)[O-])ccc3N3CCOCC3)n2)cc1 | 95 | -7 | 24 | 117 | i | 0.73 | ·
CN1C(=O)CSc2ccc(NC(=O)NCc3ccccc3)cc21 | 96 | 2 | · | · | i | 1.1 | ·
COc1oc(-c2ccc(Cl)cc2)nc1C(F)(F)F | 26 | -2 | · | · | i | 0.84 | -2.4
CCOc1ccc(C(=O)NCCC(=O)NCCCC(=O)O)cc1 | 101 | 8 | -36 | 106 | i | 0.93 | 0.1
COc1cccc(-c2nc(NCCN3CCOCC3)c3ccccc3n2)c1O | 98 | -2 | 9 | 79 | i | 0.56 | 2.4
O=c1c2cnn(-c3ccccc3)c2ncn1Cc1ccccn1 | 125 | -24 | · | · | i | 0.99 | -2.1
CCOc1ccccc1NC(=O)c1ccc([N+](=O)[O-])cc1 | 106 | 3 | -22 | 163 | i | 0.93 | ·
COc1ccc(S(=O)(=O)N/N=C/c2ccc(OCCN3CCOCC3)c(OC)c2)cc1 | 87 | -2 | 13 | 88 | i | 0.96 | -0.3
Cc1cccc(C(=O)NC2CC3CCCC(C2)N3S(=O)(=O)c2ccccc2)c1 (centres undefined) | 91 | -4 | -31 | 88 | i | 0.94 | -1.2
CCOC(=O)Cc1csc(NC(=O)C2CCCCC2C(=O)O)n1 (centres undefined) | 107 | 6 | 6 | 76 | i | 0.82 | -1.7
O=C(Oc1ccc(=O)n(-c2ccccc2)n1)c1ccc(Cl)cc1 | 105 | -7 | 5 | 79 | i | 0.97 | -1.4
CCN(Cc1ccccc1)C(=O)c1ccc(Cl)cc1[N+](=O)[O-] | 100 | -5 | · | · | i | 0.94 | ·
CCN(CC)c1ccc(NC(=O)c2[nH]c(C)c(C(C)=O)c2C)c(C)c1 | 100 | -9 | -50 | 108 | i | 1.1 | -2.3
COc1ccc(N=C2NN=C(c3c(C)[nH]c4ccccc34)CS2)cc1 | 99 | 1 | -28 | 130 | i | 0.58 | 0.0
Other entries follow.
SMILES | RGS16-Gao HTS | PKD1 kinase inh | Insulin prom inh | Insulin prom inh cell count | HSV augment | HSV augment primary fold | GALR2 agonist
CC(=O)C1C(c2ccc([N+](=O)[O-])cc2)c2c(noc2C)CC1(C)O (centres undefined) | 103 | · | · | · | i | 1.1 | ·
CCOC(=O)c1nn(-c2ccccc2F)c(-c2ccccc2)c1C(=O)c1ccccc1 | 104 | -3 | 2 | 105 | i | 0.99 | -0.9
CCOc1ccc(-n2c(SCc3ccc(C(=O)OC)o3)nc3c(c2=O)SCC3)cc1 | 100 | -8 | 42 | 115 | i | 0.8 | -0.1
CCOC(=O)Nc1sc(C)c(C)c1C(=O)OCC | 110 | 6 | 0 | 94 | i | 0.79 | 1.2
O=C1NC(c2ccccc2)Nc2c1sc(=S)n2-c1ccccc1 (centres undefined) | 95 | -2 | 44 | 121 | i | 0.96 | ·
CCc1ccc2c(c1)C(O)(CC(=O)c1cccs1)C(=O)N2 (centres undefined) | 98 | 0 | 21 | 114 | i | 1 | ·
O=C1c2ccccc2C(=O)c2c1ncn2-c1ccccc1 | 106 | -5 | 0 | 144 | i | 0.71 | 0.3
Cc1ccc(C(=O)Nc2nnc(-c3ccncc3)o2)cc1 | 100 | 7 | · | · | i | 1.1 | ·
Cc1cc(C)cc(OCC(=O)OCc2nnc(-c3ccccc3)o2)c1 | 96 | -1 | 36 | 118 | i | 1.1 | ·
Fc1ccc(N/N=C/C=C/c2ccccc2)c(F)c1 | 102 | -14 | 20 | 67 | i | 1.1 | -0.3
O=C(OCn1nnc2ccccc2c1=O)C1CCN(S(=O)(=O)c2cccs2)CC1 | 105 | 1 | · | · | i | 1.1 | 0.4
O=C(/C=C/c1ccccc1)NCCc1ccccc1 | 96 | · | · | · | i | 0.68 | ·
O=C(N/N=C/c1c(Cl)[nH]c2ccccc12)c1sc2ccccc2c1Cl | 100 | 1 | · | · | i | 0.79 | -1.6
COc1ccc(C(=O)Nc2cccc(OC(=O)c3ccc(C)c(C)c3)c2)cc1 | 101 | -12 | · | · | · | · | -3.0
CCN(CC)S(=O)(=O)c1ccc(NC(=O)c2ccc(Cl)nc2)cc1 | 89 | · | · | · | i | 0.91 | ·
Cc1cc(C(=O)Nc2cccc(/C=C/C(=O)O)c2)c(C)o1 | 108 | -7 | · | · | i | 0.73 | -0.3
O=C1C=C(O)CC(c2ccc(Cl)c(Cl)c2)C1 (centres undefined) | 95 | -1 | 57 | 141 | i | 1 | -0.2
CC(=O)Nc1ccc(NC(=O)c2c(C)nc3ccccn23)cc1 | 113 | -3 | · | · | i | 1 | -2.7
Cc1nnc(SCC(=O)Nc2sc3c(c2C#N)CCCCC3)n1N | 97 | -6 | 59 | 89 | i | 1 | 0.1
O=C1CSc2ccc(C(=O)NCC(c3ccco3)N3CCCCC3)cc2N1 (centres undefined) | 77 | -3 | 56 | 65 | i | 1.1 | ·
COc1cc(NC(=O)CSc2nnc3ccc(-c4ccncc4)nn23)cc(OC)c1 | 97 | -9 | 5 | 108 | i | 0.97 | ·
C=CCNC(=O)NC(=O)COC(=O)/C=C/c1cccc([N+](=O)[O-])c1 | 108 | 1 | · | · | i | 0.98 | ·
COc1ccc(S(=O)(=O)N2CCCC(C(=O)Nc3ccc(OC)c(OC)c3)C2)cc1 (centres undefined) | 111 | -6 | 43 | 100 | i | 0.94 | -0.8
Nc1cnc(CNc2ccccc2Cl)cn1 | 92 | · | · | · | i | 0.94 | ·
CCOC(=O)N1CCN(S(=O)(=O)c2cccs2)CC1 | 108 | -1 | -12 | 178 | i | 1 | -1.5

Filtered by structure: the compounds so far containing bromine.
SMILES | RGS16-Gao HTS | PKD1 kinase inh | Insulin prom inh | Insulin prom inh cell count | HSV augment | HSV augment primary fold | GALR2 agonist
COCC(C)NCc1ccc(OC)c(Br)c1 (centres undefined) | 108 | 3 | -27 | 98 | i | 0.94 | ·
Cc1[nH]c2ccccc2c1SCCNC(=O)c1ccc(Br)o1 | 99 | -19 | 7 | 106 | i | 0.94 | -1.6

More results:
SMILES | RGS16-Gao HTS | PKD1 kinase inh | Insulin prom inh | Insulin prom inh cell count | HSV augment | HSV augment primary fold | GALR2 agonist
CC(C)(C)CNc1cc(N2CCCC2)ccc1[N+](=O)[O-] | 114 | -9 | -126 | 143 | i | 0.75 | -1.9
COCC(=O)N(Cc1nc2ccccc2c(=O)[nH]1)Cc1cccs1 | 104 | 4 | 33 | 37 | · | · | 0.1
COc1ccccc1C1CC(c2ccco2)=NN1S(C)(=O)=O (centres undefined) | 99 | -5 | · | · | i | 0.82 | ·
CNC(=S)NNc1ccccc1[N+](=O)[O-] | 96 | 10 | · | · | i | 0.86 | ·
O=C(c1ccc(F)cc1)n1ccc(-c2cnc(-c3ccccc3)s2)n1 | 99 | -9 | -58 | 90 | i | 0.88 | -2.2
O=C(CSc1nc2ccccc2[nH]1)c1ccco1 | 87 | -6 | 12 | 127 | i | 0.94 | -1.2

Individual results from the entries so far:
Insulin prom inh cell count with CC(C)(C)CNc1cc(N2CCCC2)ccc1[N+](=O)[O-] → 143
PKD1 kinase inh with O=C(c1ccc(F)cc1)n1ccc(-c2cnc(-c3ccccc3)s2)n1 → -9
Insulin prom inh cell count with COCC(=O)N(Cc1nc2ccccc2c(=O)[nH]1)Cc1cccs1 → 37
RGS16-Gao HTS with CNC(=S)NNc1ccccc1[N+](=O)[O-] → 96
